LANA-H2A inh: blocks KSHV LANA binding to histone H2A/H2B; cell-free LANA-H2A/H2B peptide, fluorescence polarization; inhibition, % (no concentration beside the values); actives 0.6% (n = 320,000); in the data active = inhibition mostly above about 10%, no sharp cut-off; inactive = mostly below about 6.7%;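 note: stock transfer was 7.5 nL into about 10 µL; 0% = median of vehicle wells and 100% = median of positive control wells; one replicate is shown; the record names a cut of 25% in any replicate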
B2AR ag: human beta-2 adrenergic receptor agonism by FAP. P07550. Am2.2-beta2AR cells, FAP receptor internalization, flow cytometry; reference of the scale not given here. response, % (no concentration beside the values). actives 0.43% (n = 340,000). AID 504454;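 active = response above a set limit, near 3 SD of response in nonfluorescent compounds, cut at about 42% in these data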;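 note: stock transfer was 100 nL into about 11 µL; a reference agonist was the positive control; negative values mostly stem from fluorescent compounds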
FGF22 binding: binders of recombinant human FGF22 by thermal shift; calls only at 9.99 µM; SYPRO orange fluorescence; percent of sucrose octasulfate shift, DMSO zero; Q9HCT0; actives 1.5% (n = 340,000);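 active = melting point raised past a set limit in the mean and every replicate; three in four hits are not shown here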
Target sequence (Q9HCT0 whole entry, looked up): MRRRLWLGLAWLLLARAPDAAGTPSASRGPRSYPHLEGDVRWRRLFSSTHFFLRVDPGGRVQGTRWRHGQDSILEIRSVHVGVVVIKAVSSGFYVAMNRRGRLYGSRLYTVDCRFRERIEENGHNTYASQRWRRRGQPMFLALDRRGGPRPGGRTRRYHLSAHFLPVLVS
UCH37 DUB inh: human UCH37 deubiquitinating enzyme inhibition | actives 0.33% (n = 330,000) | purified proteasome/UCH37, Ub-AMC cleavage fluorescence | inhibition, % (no concentration beside the values) | Q9Y5K5;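 active = mean of two replicates above 20%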;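 note: 0% = compound-free wells with enzyme and 100% = wells lacking proteasome; stock transfer was 100 nL into about 20 µL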
Target sequence (Q9Y5K5 whole entry, looked up): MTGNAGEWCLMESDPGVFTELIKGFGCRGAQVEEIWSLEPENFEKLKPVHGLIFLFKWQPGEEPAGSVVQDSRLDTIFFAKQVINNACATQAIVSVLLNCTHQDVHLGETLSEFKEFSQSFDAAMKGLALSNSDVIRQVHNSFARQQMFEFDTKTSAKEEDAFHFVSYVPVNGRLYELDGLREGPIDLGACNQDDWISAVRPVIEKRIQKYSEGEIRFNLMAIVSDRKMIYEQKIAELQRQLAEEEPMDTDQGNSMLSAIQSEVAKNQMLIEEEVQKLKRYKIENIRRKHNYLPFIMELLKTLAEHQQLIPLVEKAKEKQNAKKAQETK
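assay system = human UCH37 enzyme supplied as purified proteasome complex | amount = proteasome at 0.15 nM in the dispensed enzyme solution | schedule = 30 min compound-proteasome preincubation then 25 min substrate reaction, room temperature | measured by = fluorescence, ex 355 nm, em 460 nm | benchmarks = no-proteasome wells (full inhibition) and compound-free wells (no inhibition)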
ALR H2O2 inh: inhibitors of human sulfhydryl oxidase ALR. AID 485317. inhibition, % (no concentration beside the values). actives 3.8% (n = 290,000). purified ALR, DTT oxidation, H2O2 HRP-luminol luminescence;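 active = mean and each replicate at 75% or more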;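 note: stock transfer was 7.5 nL into about 7.5 µL; 0% = neutral wells and 100% = wells with inactivated enzyme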
Ecoli growth: blocks Escherichia coli growth; actives 0.21% (n = 330,000); OD600 absorbance (no concentration beside the values); OD600, 23 h; active compounds read low;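 active = OD600 absorbance below the run mean of sample wells minus 3.6 SD, in any replicate, cut at about 0.56 in these data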;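 note: stock transfer was 300 nL into about 60 µL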
HNF4A DNA FP: change in binding of human HNF4 alpha to DNA. HNF4a-FITC DNA binding, fluorescence polarization, 1 h. activity change, % at 10 µM. actives 0.3% (n = 360,000); in the data active = activity change above about 30%, passing the limit was not always enough;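 note: controls were the assay level and a saturating level of protein; the project sought stronger binding though the title names inhibitors; some compounds called inactive have numbers as strong as hits; positive values seem to mean higher polarization but the record does not say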
Target sequence (P41235 whole entry, looked up): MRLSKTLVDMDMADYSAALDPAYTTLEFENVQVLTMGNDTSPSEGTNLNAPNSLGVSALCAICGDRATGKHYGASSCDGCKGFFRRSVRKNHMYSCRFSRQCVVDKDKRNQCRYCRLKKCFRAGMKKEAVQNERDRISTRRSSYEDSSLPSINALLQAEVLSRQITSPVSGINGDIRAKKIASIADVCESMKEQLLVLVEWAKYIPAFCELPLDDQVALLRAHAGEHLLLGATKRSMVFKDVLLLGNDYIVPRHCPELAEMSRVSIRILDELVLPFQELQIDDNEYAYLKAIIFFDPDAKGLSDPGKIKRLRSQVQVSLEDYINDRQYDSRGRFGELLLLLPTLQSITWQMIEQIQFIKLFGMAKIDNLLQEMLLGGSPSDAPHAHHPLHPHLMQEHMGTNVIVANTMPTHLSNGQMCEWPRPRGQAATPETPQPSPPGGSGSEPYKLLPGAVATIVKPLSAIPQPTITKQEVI
Numbers without * were called inactive; i = inactive; · = no result given. This is a subset, so the mix of outcomes need not match the whole.

SMILES | LANA-H2A inh | B2AR ag | FGF22 binding | UCH37 DUB inh | ALR H2O2 inh | Ecoli growth | HNF4A DNA FP
O=C(CCn1c(=O)c2cccn2c2cccnc21)NCc1cccc(Cl)c1 | 1.9 | -9 | i | -7.5 | 5 | 0.63 | -1.8
CCOC(=O)c1sc(-c2ccc(C)cc2)c(C#N)c1C | 3.0 | 7 | i | -7.0 | -2 | 0.7 | 0.7
CCc1sc(NC(=O)C(C)C)nc1-c1ccccc1 | -1.7 | 2 | i | 0.3 | -8 | 0.69 | 6.6
CCc1ccc(CC)c(S(=O)(=O)Nc2ccc(O)c(C(=O)O)c2)c1 | -4.5 | 10 | · | 0.9 | 2 | 0.75 | 2.1
Cc1nc(N2CCCCC2)c2c(-c3cccs3)csc2n1 | 0.5 | 1 | i | 2.3 | 51 | 0.68 | 2.0
CC(=O)NCCC(=O)Nc1cc(S(=O)(=O)N2CCCCC2)ccc1N1CCCCC1 | -2.7 | 0 | i | 5.2 | · | 0.68 | -2.1
Clc1cccc(-c2ccc(CNCc3ccccn3)o2)c1 | 6.3 | 21 | i | -6.0 | -1 | 0.59 | 4.5
CC1CCc2sc(C(=O)NCCCn3ccnc3)cc2C1 (stereo unspecified) | 8.7 | 0 | i | 0.9 | -10 | 0.69 | 1.1
Cc1cccc(OCC(=O)Nc2ccccc2N2CCCCC2)c1 | 1.5 | -5 | · | 4.7 | -13 | 0.71 | 6.2
O=C(O)/C=C/C(=O)Nc1ccccc1SC(F)(F)C(F)(F)C(F)(F)F | 0.0 | -5 | i | 0.7 | -6 | 0.66 | 0.6
CC1CN(C(=O)c2cc3c(s2)CCC3)CC(C)O1 (stereo unspecified) | 3.0 | -8 | · | 1.4 | 4 | 0.67 | -1.7
Cc1ccc2cc(CN(C(=O)c3ccncc3)C(C)C)c(=O)[nH]c2c1 | -2.4 | 10 | · | 1.0 | -10 | 0.72 | 4.3
CN(Cc1ccccc1)c1nc2c(c(=O)[nH]c(=O)n2C)n1CCCSc1ncccn1 | 4.1 | -2 | · | 2.6 | · | 0.67 | -1.8
CCOc1cc(N2CCCC2)ccc1[N+](=O)[O-] | 5.8 | -18 | · | 8.8 | -3 | 0.69 | 3.4
CCN1C(=O)/C(=C\C=C\c2ccccc2[N+](=O)[O-])SC1=S | · | 9 | i | 3.2 | · | 0.73 | 5.2
CCN(CC)Cc1cc(Nc2c3ccccc3nc3c4ccccc4n(C)c23)cc(CN(CC)CC)c1O | · | -13 | i | · | · | · | 11
CCS(=O)(=O)NCc1cn2c(C)csc2n1 | 0.0 | -3 | · | 2.7 | -8 | 0.65 | 1.5
Cc1cc(C)n2nc(C(=O)Nc3ccc(S(=O)(=O)N4CCCCC4)cc3)nc2n1 | 3.8 | 0 | · | 0.4 | 8 | 0.79 | -3.5
CCN(CC(=O)Nc1ccc2c(c1)OCCO2)Cc1cc(=O)oc2c(C)c(C)ccc12 | 3.5 | 5 | i | 2.8 | · | 0.65 | -3.4
CC1(C)c2ccccc2N(CC(N)=O)C12C=Cc1ccccc1O2 (stereo unspecified) | -0.2 | 4 | i | 1.7 | 5 | 0.66 | 6.5

Some of the entries above, reformatted.
Each structure is followed by: LANA-H2A inh	B2AR ag	FGF22 binding	UCH37 DUB inh	ALR H2O2 inh	Ecoli growth	HNF4A DNA FP
- CCc1ccc(CC)c(S(=O)(=O)Nc2ccc(O)c(C(=O)O)c2)c1
→ -4.5	10	·	0.9	2	0.75	2.1
- CCN1C(=O)/C(=C\C=C\c2ccccc2[N+](=O)[O-])SC1=S
→ ·	9	i	3.2	·	0.73	5.2
- CCN(CC(=O)Nc1ccc2c(c1)OCCO2)Cc1cc(=O)oc2c(C)c(C)ccc12
→ 3.5	5	i	2.8	·	0.65	-3.4
- Cc1cccc(OCC(=O)Nc2ccccc2N2CCCCC2)c1
→ 1.5	-5	·	4.7	-13	0.71	6.2
- CN(Cc1ccccc1)c1nc2c(c(=O)[nH]c(=O)n2C)n1CCCSc1ncccn1
→ 4.1	-2	·	2.6	·	0.67	-1.8

Next entries follow.
SMILES | LANA-H2A inh | B2AR ag | FGF22 binding | UCH37 DUB inh | ALR H2O2 inh | Ecoli growth | HNF4A DNA FP
Cn1c(CNC(=O)CNC(=O)Cc2ccc(Cl)cc2)cc(=O)n(C)c1=O | -1.7 | -1 | i | 0.1 | -9 | 0.69 | -1.6
COc1ccc(CC(=O)NCC2CCCN(Cc3ccccc3Cl)C2)cc1 (stereo unspecified) | 1.0 | 1 | i | -0.9 | 46 | 0.67 | 0.5
COc1ccc2cc(C(N)=O)/c(=N\NC(=O)c3ccccc3)oc2c1 | -4.7 | 2 | i | · | -8 | · | 3.5
O=C(NNC(=O)c1cc(-c2ccc(Cl)cc2Cl)nc2ccccc12)Nc1ccccc1 | -2.2 | 8 | · | -9.4 | 1 | 0.72 | -0.8
Cc1cccc(OCCCC(=O)Nc2ccc(S(=O)(=O)Nc3onc(C)c3C)cc2)c1 | 2.3 | -2 | · | 2.9 | 3 | 0.71 | -3.8
Cn1cc(CN2CCC(C(=O)Nc3cccc(-c4cccc(F)c4)c3)CC2)cn1 | -0.9 | 17 | i | 6.1 | -16 | 0.69 | -2.2
COC(=O)C1=C(C(=O)OC)[C@@H]2Nc3ccccc3[C@@]23C[C@@H](C(=O)OC)N(C(=O)NC2CCCCC2)C3=N1 | 4.3 | · | i | 2.0 | 7 | · | ·
COc1ccc2c(c1)nc(SCC(=O)C(C)(C)C)n2C | -1.1 | 3 | · | 0.9 | 5 | 0.63 | 1.1
COc1ccc(/C=C/c2nnc(NC(=O)CSc3ccc(C)cc3)s2)cc1 | · | 3 | i | -241 | · | 0.72 | -0.6
COc1cc(C(=O)NCCC(=O)NCc2c(F)cc(F)cc2F)cc(OC)c1OC | -11 | -4 | i | 3.7 | 2 | 0.68 | 3.6
CCOc1cc(C2/C(=C(/O)c3ccc(OC)cc3)C(=O)C(=O)N2CC2CCCO2)ccc1O (stereo unspecified) | -12 | · | · | 12 | 6 | 0.69 | ·
COC(=O)CSc1nnc(-c2ccc(S(=O)(=O)N3CCC(C)CC3)cc2)o1 | 1.1 | 4 | · | 0.0 | -3 | 0.72 | -2.3
CCc1nn(CC(=O)N2CCCCCC2)c(=O)c2cc3ccccc3n12 | -1.9 | -12 | i | -16 | -6 | 0.62 | 1.3
CC(C)COP(=O)(c1ccc(N(C)C)cc1)C(O)c1ccc(Br)cc1 (stereo unspecified) | 3.7 | 0 | i | 2.1 | -11 | 0.68 | 0.6
CCOC(=O)C1=C(COC(=O)CNC(=O)c2ccccc2F)NC(=O)NC1C (stereo unspecified) | -9.2 | -8 | i | 0.1 | -1 | 0.69 | 0.9
CCC(C(=O)OCC(=O)Nc1cccc(S(=O)(=O)NC2=NCCCCC2)c1)c1ccccc1 (stereo unspecified) | 6.6 | · | · | 3.8 | -4 | 0.64 | ·
O=C(/C=C/Sc1ncn[nH]1)c1ccc(Cl)cc1 | -0.6 | 78* | i | · | 99* | · | 0.4
CC(=O)N1CCN(C(=O)COC(=O)/C=C/c2ccc(C(F)(F)F)cc2)CC1 | -1.8 | -8 | i | 3.7 | -3 | 0.71 | 1.7
Cc1cc(C)c2c(C)c(C(=O)NCc3ccncc3)oc2c1 | 1.8 | 5 | · | 4.4 | -15 | 0.71 | -1.5
COc1ccc(-c2csc(N(CCCN(C)C)C(=O)c3ccc(Br)cc3)n2)cc1 | 5.1 | 7 | i | 3.2 | -2 | 0.61 | 1.5
CCOC(=O)C1=C(c2ccccc2)N=C2SCC(=O)N2C1c1cccc(OC)c1 (stereo unspecified) | -0.4 | 0 | · | 6.9 | 10 | 0.76 | -1.2
Cc1ccc(CN2CCN(/N=C/c3ccc(C(F)(F)F)cc3)CC2)c(C)c1 | 12 | 10 | i | · | -3 | · | -2.0
S=c1[nH]ncn1/N=C/c1cccc(Oc2ccccc2)c1 | -0.5 | -9 | · | · | 99* | · | -0.1
CCn1c(SCC(=O)Nc2cccc(C)n2)nnc1-c1ccco1 | 7.2 | -3 | · | 0.6 | -4 | 0.74 | 1.8
C=CCn1c2ccccc2c2n[nH]c(=S)nc21 | 1.4 | 8 | i | 4.5 | -4 | 0.68 | 2.7
NNS(=O)(=O)c1ccc(Cc2ncc(C(F)(F)F)cc2Cl)s1 | -0.1 | -8 | · | 5.6 | -2 | 0.74 | 0.2
Cn1c(=O)c2ccccc2n(CC(=O)NC2CCCCC2)c1=O | 2.1 | 0 | i | 0.5 | · | 0.68 | 2.5
COc1cccc(/C=C2\SC(=S)N(C(C(=O)O)c3ccccc3)C2=O)c1OC (stereo unspecified) | -3.4 | 2 | · | 11 | 40 | 0.75 | 10
O=C(Oc1c(-c2ccccc2)c(=O)n2c3c(cccc13)CC2)c1ccc(Cl)cc1 | 1.8 | -17 | i | -7.9 | 3 | 0.71 | 3.1
COc1ccccc1C(=O)Nc1ccc(Br)c2cccnc12 | -2.9 | -7 | i | -24 | -5 | 0.7 | -39
O=C(c1ccc(Cl)s1)N1CCCC(N2CCN(c3ccc(F)cc3)CC2)C1 (stereo unspecified) | 0.4 | -4 | i | 1.2 | 51 | 0.6 | 0.4
CCCCOc1ccc(C(=O)Nc2ccncc2)cc1 | -0.5 | -14 | · | 3.5 | 25 | 0.64 | -3.2
O=S1(=O)CCN(OCc2ccc(F)cc2Cl)CC1 | 4.9 | 6 | i | -1.7 | 0 | 0.65 | 2.2
O=C(COC(=O)c1nc(Cl)ccc1Cl)Nc1ccc(Cl)cn1 | -2.9 | 6 | i | -5.0 | -1 | 0.66 | 0.5
CCCCOC(=O)CCc1n[nH]c(=O)[nH]c1=O | -2.9 | -11 | · | 2.0 | -2 | 0.75 | -3.4
Cc1ccc(C(=O)N2CCN(S(=O)(=O)c3cc(Br)ccc3Br)CC2)o1 | 0.1 | 0 | i | · | -5 | · | -4.7
COc1cc(C)ccc1OCC(=O)Nc1ccccc1N1CCOCC1 | 6.5 | 0 | i | -3.9 | · | 0.66 | -1.9
CCCOc1ccc(/C(O)=C2/C(=O)C(=O)N(CCOC)C2c2cccnc2)cc1 (stereo unspecified) | 4.0 | · | · | -3.2 | -1 | 0.75 | ·
CC(C)OCCCN(CC(O)c1ccccc1)CC(O)c1ccccc1 (stereo unspecified) | -0.9 | 18 | i | 4.3 | · | 0.71 | 1.1
O=S(=O)(Nc1ccc(S(=O)(=O)N2CCCC2)cc1)c1ccc(F)cc1 | -3.5 | 7 | i | 1.2 | · | 0.66 | 3.8
Cc1ccc(CC(CC(=O)NCCc2ccc3c(c2)OCO3)C(=O)O)cc1 (stereo unspecified) | 1.9 | -3 | · | 3.3 | -1 | 0.7 | 5.2
C=C1CCN([C@@H](Cc2ccccc2)C(=O)Nc2ccc(OC)cc2)S(=O)(=O)c2ccccc21 | -2.9 | 4 | i | 2.2 | -25 | · | 0.3
CC(C)CCC(O)(CCC(C)C)C(=O)NNc1ccccc1 | -2.6 | 6 | · | 7.2 | 8 | 0.71 | 1.0
O=C(Nc1nc2ccc([N+](=O)[O-])cc2s1)c1ccco1 | 13 | · | i | · | -28 | · | ·
Cc1ccccc1-c1ccc(/C=C2/SC(N3CCOCC3)=NC2=O)o1 | -3.4 | 1 | i | -1.9 | 0 | 0.64 | 5.0
COc1ccc(C(=O)N/C(=C\c2cn(C)c3ccccc23)C(=O)N2CCOCC2)cc1 | 1.9 | 16 | i | 13 | 30 | 0.68 | 3.8
CCN1CCN(C(=O)Nc2ccc(Cc3ccc(NC(=O)N4CCN(CC)CC4)cc3)cc2)CC1 | 1.7 | 9 | i | -0.2 | 99* | 0.67 | 1.0
COc1ccc(/C=N/NC(=O)c2ccc(N(C)S(=O)(=O)c3ccccc3)cc2)cc1 | 2.4 | 27 | · | · | -10 | · | 1.1
Cn1c(=O)n(CC(=O)Nc2cccnc2)c2ccccc21 | -4.0 | 0 | · | -1.1 | -10 | 0.68 | -3.5
COc1ccccc1NC(=O)COC(=O)C1C2CC3OC(=O)C1C3C2 (stereo unspecified) | -0.2 | 6 | i | 8.8 | -2 | 0.69 | -2.2
